Mtb growth: M. tuberculosis H37Rv growth inhibitors, H37Rv strain (AID 1626); 220,000 compounds, 0.95% hits; M. tuberculosis H37Rv growth inhibition; higher % means a stronger effect; one-dose inhibition, % at 10 µM; IC50 in µM for titrated hits;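 active means confirmed in a dose series; inconclusive means inhibition above 80% but not taken into the dose series; inactive means below 80% or under 30% at every dose of the series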;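 further: bacteria incubated seven days before Alamar blue readout; 0% = bacteria only wells and 100% = bacteria with antibiotic wells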
Mtb bLac sens: beta-lactam sensitization of Mtb H37Rv; inhibition, % at 25 µM; 330,000 compounds, 0.27% hits; M. tuberculosis H37Rv growth with meropenem, percent inhibition; hits of this screen are not shown here;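 active means about 74% or more and at least 40 points above the plate without the antibiotic, then above 30% in a dose series; inconclusive means first-round hits that could not be retested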;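 further: growth measured after seven days incubation then overnight dye step; 0% = bacteria only wells and 100% = bacteria with antibiotic; twin plates without the antibiotic show which effects depend on it; some results filed as inactive read as strong as hits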
Arbovirus anti: antivirals against arbovirus infection; 200,000 compounds, 0.37% hits; arbovirus infection cell-based antiviral screen; inhibition, % at 10 µM;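 active means inhibition from about 30%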;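 further: bluetongue infection of BSR cells; cell survival read as ATP light after 72 h; 0% = infected wells without compound and 100% = uninfected wells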
YopH PTP inh: blocks Yersinia enterocolitica YopH tyrosine phosphatase. 140,000 compounds, 0.16% hits. fluorescence Ex485/Em525. AID 898. inhibition, %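 (about 10 µM by stock and volumes)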;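 active means inhibition of 50% or more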;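 further: controls were vehicle for no effect and minimum signal wells for full effect; inactives centre near -20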
RecA splice inh: Mtb RecA intein splicing inhibition. cell-free RecA intein splicing, fluorescence. inhibition, %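 (about 9 µM by stock and volumes)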. 290,000 compounds, 0.75% hits. AID 2221; in the data active means inhibition above about 30%; inconclusive means no clear call, values can overlap the other calls;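 further: 0% = vehicle wells and 100% = reference inhibitor control wells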
Target sequence (P9WHJ3 whole entry, looked up, canonical isoform): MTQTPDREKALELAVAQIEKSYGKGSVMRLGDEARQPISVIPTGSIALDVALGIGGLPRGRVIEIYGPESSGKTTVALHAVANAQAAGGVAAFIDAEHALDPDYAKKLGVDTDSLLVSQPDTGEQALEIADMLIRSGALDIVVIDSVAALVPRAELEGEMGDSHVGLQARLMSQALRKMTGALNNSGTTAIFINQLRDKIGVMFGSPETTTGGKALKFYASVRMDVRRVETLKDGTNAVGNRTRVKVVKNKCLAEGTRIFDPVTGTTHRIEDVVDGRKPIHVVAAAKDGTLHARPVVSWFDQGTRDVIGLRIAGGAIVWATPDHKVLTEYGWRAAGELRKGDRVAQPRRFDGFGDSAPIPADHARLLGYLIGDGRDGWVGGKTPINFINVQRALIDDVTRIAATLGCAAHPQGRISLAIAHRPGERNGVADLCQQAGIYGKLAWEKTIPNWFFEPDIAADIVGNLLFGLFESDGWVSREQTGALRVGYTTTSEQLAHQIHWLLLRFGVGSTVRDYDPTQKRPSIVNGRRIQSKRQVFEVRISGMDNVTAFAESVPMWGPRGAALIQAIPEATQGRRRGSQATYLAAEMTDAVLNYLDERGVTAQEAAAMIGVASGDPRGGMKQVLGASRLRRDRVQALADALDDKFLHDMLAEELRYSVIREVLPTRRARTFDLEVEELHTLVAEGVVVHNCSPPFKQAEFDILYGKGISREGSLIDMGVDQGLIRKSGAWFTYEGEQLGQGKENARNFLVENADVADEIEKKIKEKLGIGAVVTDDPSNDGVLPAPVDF
Arbovirus anti repeat: also measured in Arbovirus anti; calls as there; inhibition, %; measured here: 10K subset replicate screen; many hits read low in the repeat;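 first of two repeat runs on a subset; 0% = infected and 100% = uninfected wells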
Active calls of the source: *. The list is partial; the hit share may differ from the screen's.

Screening O=C1NC(=O)N(C2CCCCC2)C(=O)C1C1c2ccccc2C(=O)N1Cc1ccccc1 (stereo not given) returned Mtb growth -0.7%, Mtb bLac sens -12.1, Arbovirus anti 1.9, YopH PTP inh -57.3 and RecA splice inh 1.5.
For CCN(C(=S)Nc1ccccc1F)C1CCCCC1 the results were Mtb growth -1.4%, Mtb bLac sens 5.0, Arbovirus anti -4.4 and YopH PTP inh -22.2.
O=C(Nc1ncccc1O)c1c(O)c2ccccc2[nH]c1=O was read as Mtb growth -5.5%, Mtb bLac sens 6.5 and RecA splice inh 0.3.
CCOC(=O)c1c(CCl)nc2ccccc2c1-c1ccccc1 was read as Mtb growth 27.7%, Mtb bLac sens 97.4 and RecA splice inh 41.2*.
For COc1ccc(-c2nnc(SC(C)C(=O)NCc3ccc4c(c3)OCO4)n2Cc2ccco2)cc1 (stereo not given) the results were Mtb growth -3.2%, Mtb bLac sens -4.2, Arbovirus anti -7.3, YopH PTP inh -26.4 and RecA splice inh 2.3.
Screening CCCCOC(=O)C1=C(C)Nc2nnnn2C1c1ccc(OC)c(OC)c1OC (stereo not given) returned Mtb growth -5.6%, Mtb bLac sens -30.3, Arbovirus anti -5.3, YopH PTP inh -38.0 and RecA splice inh -3.3.
O=C(Nc1ccc(Cl)cc1)N1CCSC1=NCc1ccccc1 was read as Mtb growth -14.8%, Mtb bLac sens -2.7 and RecA splice inh 0.8.
Screening CCCn1c(=N)n(CC(O)c2ccc(C)cc2)c2ccccc21 (stereo not given) returned Mtb growth -2.9%, Mtb bLac sens -5.3 and RecA splice inh 0.4.
For CNC(=O)c1c(NC(=O)c2ccc(S(=O)(=O)N3CCCCC3)cc2)sc2c1CCN(C(C)C)C2 the results were Mtb bLac sens inconclusive and RecA splice inh -0.8.
`Nc1ccc(C(=O)N2CCCC2)cc1` gave Mtb growth -13.1%, Mtb bLac sens -4.5, Arbovirus anti -4.7, YopH PTP inh 1.1 and RecA splice inh -0.9.
O=C(Nc1ccc2sccc2c1)c1ccc(Cl)s1 was read as Mtb growth 59.4%, Mtb bLac sens -3.9, Arbovirus anti -4.6, YopH PTP inh -9.6 and RecA splice inh -0.5.
`COc1ccc(Br)cc1/C=N/NC(=O)c1cccc(S(=O)(=O)N2CCOCC2)c1` gave Mtb growth -1.2%, Mtb bLac sens -1.7, Arbovirus anti -8.3 and RecA splice inh 0.0.
`Cc1c(NC(=O)CN2CCN(c3ccccc3)CC2)c(=O)n(-c2ccccc2)n1C` gave Mtb growth -1.1%, Mtb bLac sens -11.5, Arbovirus anti -0.1, YopH PTP inh -11.5 and RecA splice inh -6.3.
For O=C(c1ccco1)N1CCCC(c2nc3c(nnn3Cc3ccc(Cl)cc3Cl)c(=O)[nH]2)C1 (stereo not given) the results were Mtb bLac sens 0.0 and RecA splice inh 2.2.
For CC(=O)c1ccc(NS(=O)(=O)c2cc3c(cc2C)N(C(C)=O)CCO3)cc1 the results were Mtb bLac sens -4.9 and RecA splice inh 3.7.
COCCNC(=O)c1cc2sc3ccccc3c2s1 was read as Mtb growth 0.8%, Mtb bLac sens -0.8, Arbovirus anti -8.5, YopH PTP inh -16.7 and RecA splice inh 1.1.
Cn1c(=O)n(CCO)c(=O)c2c1nc(Br)n2Cc1ccccc1 was read as Mtb bLac sens -4.6 and RecA splice inh -2.2.
CSc1nncn1/N=C/c1cc(Cl)ccc1F was read as Mtb growth -15.6%, Mtb bLac sens -0.2, Arbovirus anti 1.1, YopH PTP inh -3.3 and RecA splice inh -1.5.
For CC(NC(=O)c1ccncc1)C(C)(C)C (stereo not given) the results were Mtb growth -0.9%, Mtb bLac sens -16.0, Arbovirus anti -3.4, YopH PTP inh 14.4 and RecA splice inh 0.2.
COc1cccc2[nH]c3ccccc3c(=O)c12 was read as Mtb bLac sens -0.1 and RecA splice inh inactive.
`Cc1c(NCc2ccncc2)cccc1C(=O)O` gave Mtb bLac sens 4.0 and RecA splice inh 0.5.
For CC1(C)Cc2c(c(-c3ccco3)nc3sc4c(NCCN5CCOCC5)ncnc4c23)CO1 the results were Mtb growth 6.9%, Mtb bLac sens 87.3, Arbovirus anti -2.4, YopH PTP inh 8.8 and RecA splice inh -1.1.
For c1cncc(-c2nn3c(Cn4nnc5ccccc54)nnc3s2)c1 the results were Mtb growth -2.9%, Mtb bLac sens 2.2, Arbovirus anti 5.9, YopH PTP inh -29.0 and RecA splice inh -0.1.
Screening O=C(NCCCN1CCOCC1)c1onc(CSc2ccc(F)c(F)c2)c1C(=O)NCCCN1CCOCC1 returned Mtb growth -6.3%, Mtb bLac sens 1.4 and RecA splice inh -0.4.
CCC1(c2ccc(Cl)cc2)NC(=S)N(c2ccc(C)cc2)N1 (stereo not given) was read as Mtb growth 4.6%, Mtb bLac sens 87.2, Arbovirus anti -24.0, YopH PTP inh -24.8 and RecA splice inh -0.1.
Screening Cc1ccnc(NC(=O)CCC(=O)N(CC(=O)NCC2CCCO2)Cc2ccc(F)cc2)c1 (stereo not given) returned Mtb growth 6.7%, Mtb bLac sens 6.5, Arbovirus anti -1.4, YopH PTP inh -37.3 and RecA splice inh 1.5.
`O=C(CCC(=O)NNC(=O)Nc1cccc(Cl)c1)NCc1ccccc1` gave Mtb growth 3.6%, Mtb bLac sens -1.9, Arbovirus anti 6.7 and RecA splice inh 1.6.
`CCn1cc(S(=O)(=O)CC(=O)NC2CCCCC2)c2ccccc21` gave Mtb growth -12.8%, Mtb bLac sens -4.2, Arbovirus anti 7.7, YopH PTP inh -37.0, RecA splice inh 1.6 and Arbovirus anti repeat 4.8.
Screening O=C(CN1C(=O)C2C3C=CC(C3)C2C1=O)Nc1nncs1 (stereo not given) returned Mtb growth -5.8%, Mtb bLac sens 0.7, Arbovirus anti 11.1 and RecA splice inh -1.6.
`O=C(Nc1ccccc1)NC(Cc1ccc(O)cc1)C(=O)O` (stereo not given) gave Mtb growth 1.1%, Mtb bLac sens 0.2, Arbovirus anti 0.5 and RecA splice inh -0.4.
For COc1cccc(/C=N\n2c(C)nnc2C)c1OC the results were Mtb growth -1.6%, Mtb bLac sens -5.7, Arbovirus anti -1.2, YopH PTP inh -47.3 and RecA splice inh -0.2.
O=C(COC(=O)/C=C/c1ccc(OC(F)F)cc1)NC1CCCCCCC1 was read as Mtb bLac sens -0.3 and RecA splice inh -0.1.
`O=C(NCc1nnc(SCC(=O)N2CCCc3ccccc32)o1)c1c(F)cccc1Cl` gave Mtb growth -1.1%, Mtb bLac sens -1.6, Arbovirus anti 10.5 and RecA splice inh 0.7.
For CCCOc1ccc(NC(N)=O)cc1OCCC the results were Mtb bLac sens -4.6, Arbovirus anti 0.1, YopH PTP inh -53.9 and RecA splice inh 0.4.
For O=C(CN1CCN(c2ccc(F)cc2)CC1)Nc1ccc(-n2cnnn2)cc1 the results were Mtb growth -4.0%, Mtb bLac sens 4.5, Arbovirus anti -3.3, YopH PTP inh -12.6 and RecA splice inh -2.0.
`O=C(c1cccc(NS(=O)(=O)c2ccc(F)c(F)c2)c1)N1CCN(C(c2ccccc2)c2ccccc2)CC1` gave Mtb growth -0.3%, Mtb bLac sens 4.7, Arbovirus anti 12.9, YopH PTP inh -30.8 and RecA splice inh 0.9.
Screening C/C(=N\O)C1/C(=N/O)CC2C1C2(C)C (stereo not given) returned Mtb growth -1.5%, Mtb bLac sens -7.3, Arbovirus anti 7.7, YopH PTP inh -19.5 and RecA splice inh -0.3.
`COc1ccc(O)c(/C=N\NC(=O)CCn2nnc3ccccc32)c1` gave Mtb growth -1.5%, Mtb bLac sens 5.5, Arbovirus anti 3.2, YopH PTP inh -3.4 and RecA splice inh -22.7.
For O=C(NC1CCCCCC1)C(=S)NCCc1ccccc1 the results were Mtb growth -0.6%, Mtb bLac sens 5.0, Arbovirus anti 0.7 and RecA splice inh -0.5.
For Oc1ccc(-c2[nH]ncc2-c2cnn(-c3ccccc3)c2)c(O)c1 the results were Mtb growth -1.3%, Mtb bLac sens -4.8, Arbovirus anti 3.8 and RecA splice inh -1.1.

Brought forward from above: 4 compounds; new compounds follow.
Screening C/C(=N\O)C1/C(=N/O)CC2C1C2(C)C (stereo not given) returned Mtb growth -1.5%, Mtb bLac sens -7.3, Arbovirus anti 7.7, YopH PTP inh -19.5 and RecA splice inh -0.3.
`COc1ccc(O)c(/C=N\NC(=O)CCn2nnc3ccccc32)c1` gave Mtb growth -1.5%, Mtb bLac sens 5.5, Arbovirus anti 3.2, YopH PTP inh -3.4 and RecA splice inh -22.7.
For O=C(NC1CCCCCC1)C(=S)NCCc1ccccc1 the results were Mtb growth -0.6%, Mtb bLac sens 5.0, Arbovirus anti 0.7 and RecA splice inh -0.5.
For Oc1ccc(-c2[nH]ncc2-c2cnn(-c3ccccc3)c2)c(O)c1 the results were Mtb growth -1.3%, Mtb bLac sens -4.8, Arbovirus anti 3.8 and RecA splice inh -1.1.
For CCOc1ccc2[nH]c3ncccc3c(=O)c2c1 the results were Mtb bLac sens 71.8 and RecA splice inh -2.7.
For CCN1CCc2c(C#N)c(N3CCOCC3)nc(N3CCOCC3)c2C1 the results were Mtb growth -5.2%, Mtb bLac sens 17.9, Arbovirus anti -1.6, YopH PTP inh -3.3 and RecA splice inh 0.8.
`Cc1[nH][nH]c(=O)c1C=NCc1cccs1` gave Mtb growth 0.4%, Mtb bLac sens -1.5, Arbovirus anti -1.5 and RecA splice inh 1.1.
CC(C)c1nccn1S(=O)(=O)c1cc(Cl)ccc1Cl was read as Mtb growth -3.9%, Mtb bLac sens 3.7, Arbovirus anti -1.6, YopH PTP inh -40.2, RecA splice inh 2.7 and Arbovirus anti repeat 4.5.
O=C(NCc1nnc2c3ccccc3c(-c3ccccc3)nn12)c1ccccc1Cl was read as Mtb growth 17.6%, Mtb bLac sens 63.5, Arbovirus anti -14.0, YopH PTP inh -21.4 and RecA splice inh -1.7.
Screening CCOC(=O)CCC(NC(=O)CCCCCCCCC(=O)NC(CCC(=O)OCC)C(=O)OCC)C(=O)OCC (stereo not given) returned Mtb growth -6.9%, Mtb bLac sens -0.9, Arbovirus anti -1.2, YopH PTP inh -21.1 and RecA splice inh 0.1.
For Cc1ccc(OCC(=O)Nc2cc(S(=O)(=O)N3CCCCC3)ccc2C)c([N+](=O)[O-])n1 the results were Mtb growth 0.0%, Mtb bLac sens -1.3, Arbovirus anti -11.3, YopH PTP inh -19.9 and RecA splice inh -0.2.
For C=CCNc1nc(C)c(C(C)=O)cc1C#N the results were Mtb growth -4.0%, Mtb bLac sens 5.7, Arbovirus anti 1.9, YopH PTP inh -13.0 and RecA splice inh 0.3.
For COCCNC(=O)c1cc(-c2ccc(Cl)c(Cl)c2)on1 the results were Mtb growth 2.6%, Mtb bLac sens 0.1, Arbovirus anti 1.1, YopH PTP inh -43.9, RecA splice inh -3.5 and Arbovirus anti repeat 0.4.
COc1ccc(OC)c(-c2c(C#N)c(N)nc3c2c(=O)nc2sccn23)c1 was read as Mtb growth 3.9%, Mtb bLac sens 2.2, Arbovirus anti -0.1 and RecA splice inh 1.2.
Cc1cccc(NCc2ccccc2OCc2ccccc2F)c1 was read as Mtb growth 15.4%, Mtb bLac sens -37.9, Arbovirus anti 13.8, YopH PTP inh -18.9 and RecA splice inh 8.8.
`COc1cccc(C(=O)COc2cccc(NC(=O)c3ccco3)c2)c1` gave Mtb growth -3.1%, Mtb bLac sens 1.3, Arbovirus anti -21.6 and RecA splice inh -2.3.
c1ccc(N2CCN(Cc3ccsc3)CC2)nc1 was read as Mtb growth -9.3%, Mtb bLac sens 15.4, Arbovirus anti 4.4, YopH PTP inh -44.0 and RecA splice inh -1.1.
For Cc1cc(OCC(=O)NNC(=O)CCc2ccccc2)ccc1Br the results were Mtb bLac sens 1.0 and RecA splice inh 0.9.
For CCSCCNC(=O)c1cncc(Br)c1 the results were Mtb growth 2.3%, Mtb bLac sens -3.5, Arbovirus anti 2.8, YopH PTP inh -13.7 and RecA splice inh 1.0.
For O=C(O)CN1C(=O)SC(Nc2ccc(Cl)cc2)C1=O (stereo not given) the results were Mtb growth 8.6%, Mtb bLac sens -14.4, Arbovirus anti -12.2, YopH PTP inh -1.6 and RecA splice inh -4.1.
Cc1cccc(CS(=O)(=O)Cc2ccc(C(=O)NC3CCCCCC3)o2)c1 was read as Mtb bLac sens -4.2 and RecA splice inh -2.9.
Screening O=C(CCNC(=O)c1ccccc1Cl)Nc1cc(C(F)(F)F)ccc1Cl returned Mtb growth 3.4%, Mtb bLac sens 4.7, Arbovirus anti -6.5, YopH PTP inh -14.1 and RecA splice inh 0.4.
`Cc1ccc(NC(=S)N(C)Cc2cn(C)c3ccccc23)cc1` gave Mtb growth 0.1%, Mtb bLac sens 1.6, Arbovirus anti 8.5, YopH PTP inh -30.5 and RecA splice inh 0.7.

Screens deposited in PubChem by several laboratories.
